# Bioassay records from PubChem.
# Vaccinia stage = Vaccinia orthopox stage-specific inhibition | activity change (mCherry), % (test concentration not listed) | AID 1053133 | Vaccinia-infected cells, mCherry/Venus stage reporter fluorescence; hits give low values; some inactives read as strong as hits | hit rate 0.01% among 89,000;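 active means mCherry past -33% and 40 or more points under the early reporter, replicates agreeing; inconclusive means past -33% without that gap or agreement; tested in A549 cells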;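 further: scaled between vehicle wells and reference inhibitor wells; 23 nL library stock went into each well; one replicate is shown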
# Vaccinia stage Venus = further read-out of Vaccinia stage, marked with its call; activity change (Venus), %; measured here: Venus reporter, other viral stage;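 negative = less Venus signal; first of two replicates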
# Starred values were filed as active, the others as inactive; ? = inconclusive; . = no result given; & = joins results of further samples.
# Preview:
Compound	Vaccinia stage	Vaccinia stage Venus
C[C@H]1CN([C@@H](C)CO)C(=O)c2cc(/C=C/c3ccccc3)cnc2O[C@@H]1CN(C)S(=O)(=O)c1cccs1	?	.
COc1ccc(S(=O)(=O)Nc2ccc3c(c2)C(=O)N([C@H](C)CO)C[C@H](C)[C@@H](CN(C)S(=O)(=O)c2ccc(C)cc2)O3)cc1	-1	12

# Results, previewed entries included:
Compound	Vaccinia stage	Vaccinia stage Venus
C[C@H]1CN([C@@H](C)CO)C(=O)c2cc(/C=C/c3ccccc3)cnc2O[C@@H]1CN(C)S(=O)(=O)c1cccs1	?	.
COc1ccc(S(=O)(=O)Nc2ccc3c(c2)C(=O)N([C@H](C)CO)C[C@H](C)[C@@H](CN(C)S(=O)(=O)c2ccc(C)cc2)O3)cc1	-1	12
C[C@H]1CN([C@@H](C)CO)C(=O)c2cc(NC(=O)NC3CCCCC3)ccc2O[C@H]1CN(C)C(=O)Nc1ccc(F)cc1	1	5
COc1ccc(CN(C)C[C@@H]2Oc3c(NS(=O)(=O)c4c(C)noc4C)cccc3C(=O)N([C@@H](C)CO)C[C@@H]2C)cc1	4	-2
CCCC#Cc1cnc2c(c1)C(=O)N([C@@H](C)CO)C[C@@H](C)[C@H](CN(C)Cc1cccnc1)O2	5	-4
COCC(=O)Nc1ccc2c(c1)C(=O)N(C)C[C@H](OC)[C@H](C)CN(Cc1ccccc1OC)[C@@H](C)CO2	26	12
CCC(=O)N(C)C[C@@H]1Oc2cc(-c3ccccc3C)ccc2S(=O)(=O)N([C@@H](C)CO)C[C@@H]1C	-9	-15
C[C@H]1CN([C@@H](C)CO)C(=O)CCCn2nncc2CO[C@H]1CN(C)Cc1ccc2c(c1)OCCN2C	14	15
CN(C)CC#Cc1cccc(-c2nc(C(=O)O)cc3c2[C@H](CCO)N(S(=O)C(C)(C)C)C3)c1 (stereo partly specified)	18	31
Cc1noc(C)c1NC(=O)N(C)C[C@@H]1OCCCC[C@@H](C)Oc2ccc(NC(=O)C3CCCCC3)cc2C(=O)N([C@H](C)CO)C[C@@H]1C	21	-1
COc1ccc(-c2cnc3c(c2)C(=O)N([C@@H](C)CO)C[C@@H](C)[C@H](CN(C)C(=O)C2CCOCC2)O3)cc1	8	4
COc1ccc2c3c([nH]c2c1)[C@H](CO)N(Cc1ccccc1)CC31CCN(S(C)(=O)=O)CC1	15	19
O=C(NCC[C@@H]1CC[C@@H](NC(=O)C2CCC2)[C@H](CO)O1)c1cnccn1	-5	-1
C[C@H](CO)N1C[C@H](C)[C@@H](CN(C)C(=O)NC2CCCC2)Oc2cc(-c3cccnc3)ccc2S1(=O)=O	-5	2
C[C@H](CO)N1C[C@H](C)[C@@H](CN(C)CC2CCOCC2)Oc2ncc(C#Cc3ccc(F)cc3)cc2C1=O	-23	-9
O=C(N[C@@H]1CC[C@@H](CC(=O)N2CCc3ccccc3C2)O[C@H]1CO)C1CCOCC1	-2	-3
C[C@@H]1CN([C@@H](C)CO)C(=O)c2cccc(NC(=O)Nc3ccc(F)cc3)c2O[C@H]1CN(C)Cc1ccccc1	-13	-8
Cc1noc(C)c1S(=O)(=O)Nc1ccc2c(c1)CC(=O)N([C@@H](C)CO)C[C@H](C)[C@H](CN(C)Cc1ccccc1)O2	5	5
Cc1ccc(NC(=O)Nc2ccc3c(c2)C(=O)N(C)[C@@H]2CC[C@@H](CC(=O)O)O[C@H]2CO3)cc1	1	0
C[C@H](CO)N1C[C@H](C)[C@H](CN(C)C)Oc2ccc(NS(=O)(=O)c3ccccc3)cc2CC1=O	5	-1

# 2 of the compounds above, as labelled records:
smiles: CCCC#Cc1cnc2c(c1)C(=O)N([C@@H](C)CO)C[C@@H](C)[C@H](CN(C)Cc1cccnc1)O2
  Vaccinia stage: 5	Vaccinia stage Venus: -4

smiles: COCC(=O)Nc1ccc2c(c1)C(=O)N(C)C[C@H](OC)[C@H](C)CN(Cc1ccccc1OC)[C@@H](C)CO2
  Vaccinia stage: 26	Vaccinia stage Venus: 12

# The listing continues:
Compound	Vaccinia stage	Vaccinia stage Venus
NCC[C@@H]1CC[C@@H](NC(=O)CCN2CCCCC2)[C@H](CO)O1	6	6
CC(C)COC(=O)N(C)C[C@@H]1OCc2cnnn2CCCC(=O)N([C@@H](C)CO)C[C@@H]1C	8&18	2&12
COCC(=O)N(C)C[C@H]1Oc2cc(C#C[C@H](C)O)ccc2S(=O)(=O)N([C@@H](C)CO)C[C@@H]1C	11	10
C[C@@H]1CN([C@@H](C)CO)C(=O)c2cc(-c3ccccc3)cnc2O[C@@H]1CN(C)C	10	7
CN1C(=O)c2cc(NC(=O)Nc3ccccc3F)ccc2OC[C@H]2O[C@H](CC(=O)NCCc3ccncc3)CC[C@@H]21	2	-1
O=C(C[C@@H]1CC[C@H]2[C@@H](COC[C@H](O)CN2Cc2cc(F)ccc2F)O1)NCc1ccccc1	27	19
CCCN(C)C[C@H]1OCCCC[C@@H](C)Oc2ccc(NS(=O)(=O)c3ccc(F)cc3)cc2C(=O)N([C@@H](C)CO)C[C@@H]1C	?	.
C[C@H]1CN([C@@H](C)CO)C(=O)c2cc(N(C)C)ccc2O[C@@H]1CN(C)C(=O)NC1CCCCC1	24	15
COc1cccc(NC(=O)N2C[C@@H](O)COC[C@H]3O[C@H](CC(=O)NC4CCC4)CC[C@@H]32)c1	2	3
CCNC(=O)C[C@H]1CC[C@H]2[C@@H](COc3ccc(NC(=O)Nc4cccc(Cl)c4)cc3C(=O)N2C)O1	10	6
O=C(Cc1ccccn1)N[C@H]1CC[C@@H](CCn2cc(-c3ccc(F)cc3)nn2)O[C@@H]1CO	8	6
O=C(C[C@@H]1C[C@H]2c3cc(NS(=O)(=O)c4ccc(F)cc4)ccc3O[C@H]2[C@H](CO)O1)NCCc1ccccc1	-20	-14
CCCNC(=O)C[C@@H]1CC[C@@H]2[C@H](COc3ccc(NC(=O)NCC)cc3C(=O)N2C)O1	0	-3
O=C(O)C1=C[C@@H](c2ccc3c(c2)OCO3)C[C@@H](OCCCCO)O1	13	6
C[C@H]1CN([C@@H](C)CO)C(=O)Cc2cc(NS(=O)(=O)c3cn(C)cn3)ccc2O[C@@H]1CN(C)Cc1ccc(C(=O)Nc2ccccc2N)cc1	9	12
CCC(=O)Nc1ccc2c(c1)C(=O)N(C)C[C@@H](OC)[C@H](C)CN(Cc1ccccc1C(=O)O)[C@@H](C)CO2	4	3
COc1ccccc1NC(=O)N1CCCCN2[C@@H](CO)[C@@H](c3ccc(C#CC4CCCC4)cc3)[C@@H]2C1	?	.
C[C@@H]1CN([C@@H](C)CO)C(=O)Cc2cc(NC(=O)Cc3cn(C)c4ccccc34)ccc2O[C@@H]1CN(C)C(=O)Nc1cccc2ccccc12	12	17
O=S(=O)(c1ccc(F)cc1)N1CCCCN2[C@H](CO)[C@@H](c3ccc(C#CC4CCCC4)cc3)[C@@H]2C1	20	11
C[C@@H]1CN([C@H](C)CO)C(=O)c2cc(NC(=O)Nc3ccc(C(F)(F)F)cc3)ccc2O[C@@H]1CN(C)Cc1ccc2c(c1)OCO2	-33	-25
COCC(=O)N1C[C@H]2[C@@H](c3ccccc31)[C@@H](CO)N2C(=O)C1CCCC1	20	19
N#C[C@@H]1N[C@H](CO)[C@H]1c1ccc(C#CC2CCCC2)cc1	-8	2
C[C@H](CO)N1C[C@H](C)[C@@H](CN(C)S(C)(=O)=O)Oc2ccc(NC(=O)Nc3ccccc3)cc2CC1=O	16	12
COCC(=O)N(C)C[C@H]1Oc2ncc(/C=C/c3ccccc3)cc2C(=O)N([C@H](C)CO)C[C@H]1C	13	5
CCC(=O)N[C@H]1CC[C@@H](CC(=O)NCc2ccccc2OC)O[C@@H]1CO	-10	1
C[C@@H]1CCCCO[C@H](CN(C)Cc2ccc(Cl)c(Cl)c2)[C@@H](C)CN([C@@H](C)CO)C(=O)c2cc(NS(=O)(=O)c3cn(C)cn3)ccc2O1	?	.
CCCN(C)C[C@H]1Oc2ncc(C#CCC(C)C)cc2C(=O)N([C@H](C)CO)C[C@@H]1C	?	.
O=C(C[C@@H]1CC[C@H]2[C@@H](COC[C@@H](O)CN2C(=O)c2ccccc2)O1)NCCCN1CCOCC1	9	5
O=C(NCC[C@@H]1CC[C@H](NS(=O)(=O)c2ccc(Cl)cc2)[C@H](CO)O1)c1ccc2c(c1)OCO2	-14	-4
COCCOC(=O)N1C(=O)[C@@]2(c3cc(C#CCC(C(=O)OC)C(=O)OC)ccc31)[C@H](C(=O)N1CCN(c3ncccn3)CC1)[C@H]1C(=O)O[C@H](c3ccccc3)[C@H](c3ccccc3)N1[C@@H]2c1ccc(O)cc1	-1	1
COc1ccc(NC(=O)N(C)C[C@@H]2OCCCC[C@@H](C)Oc3ccc(NS(=O)(=O)c4ccccc4)cc3C(=O)N([C@@H](C)CO)C[C@@H]2C)cc1	9	-3
CC(C)C#Cc1ccc([C@@H]2[C@H](CO)N3C(=O)CN(C(=O)c4ccc5c(c4)OCO5)C[C@@H]23)cc1	-21	-8
COc1ccc(C#Cc2ccc([C@H]3[C@@H](CO)N4C(=O)CN(C(C)=O)C[C@@H]34)cc2)cc1	8	1
COc1cccc(-c2ccc([C@H]3[C@H](CO)N4C(=O)CN(C(=O)C5CCCC5)C[C@@H]34)cc2)c1	-2	4
CC(=O)OCO/N=[N+](\[O-])N1CCCC1	8	-1
C[C@H]1CN([C@@H](C)CO)S(=O)(=O)c2ccc(C3=CCCC3)cc2O[C@H]1CN(C)Cc1cccnc1	21	13
CO[C@@H]1CN(C)C(=O)c2cc(NC(=O)NC3CCCCC3)ccc2OC[C@H](C)NC[C@@H]1C	-13	-18
C/C=C/c1cnc2c(c1)C(=O)N([C@@H](C)CO)C[C@H](C)[C@H](CN(C)C(=O)Nc1ccc(C(F)(F)F)cc1)O2	1	-8
CC(C)NC(=O)N(C)C[C@H]1Oc2ccc(NC(=O)NC3CCCCC3)cc2C(=O)N([C@@H](C)CO)C[C@H]1C	-10	-7
CCCC#Cc1ccc([C@@H]2[C@H](CO)N3C(=O)CN(S(=O)(=O)c4ccccc4C)C[C@@H]23)cc1	4	3
COc1ccc(NC(=O)Nc2ccc3c(c2)C(=O)N([C@H](C)CO)C[C@@H](C)[C@@H](CN(C)CC2CCCCC2)O3)cc1	-14	-16
OC[C@H]1[C@H](c2ccc(C#CC3(O)CCCC3)cc2)[C@H]2CN(Cc3cncnc3)CCCCN21	4	7
C[C@H](CO)N1C[C@H](C)[C@@H](CN(C)C(=O)Cc2ccccc2)OCCCC[C@H](C)Oc2ccc(NC(=O)Nc3ccc(C(F)(F)F)cc3)cc2C1=O	-19	-7
N#C[C@@H]1[C@H](c2ccccc2C2=CCCC2)[C@H](CO)N1C(=O)NC1CCCCC1	-35	-28
COc1ccc(NC(=O)Nc2ccc3c(c2)C(=O)N([C@H](C)CO)C[C@@H](C)[C@H](CN(C)C(=O)C2CCCCC2)OCCCC[C@@H](C)O3)cc1	?	.
CO[C@H]1CN(C)C(=O)c2ccc(NC(=O)C3CC3)cc2OC[C@H](C)N(CC2CC2)C[C@@H]1C	25	17
CCN1CC(=O)N2[C@H](CO)[C@@H](c3ccc(Br)cc3)[C@@H]2C1	18	9
CC(C)CC#Cc1ccc([C@@H]2[C@H]3CN(C(=O)Cc4ccccn4)CCCCN3[C@H]2CO)cc1	?	.
C[C@@H]1CN([C@@H](C)CO)C(=O)c2cc(NC(=O)Cc3cn(C)c4ccccc34)ccc2O[C@H]1CN(C)Cc1ccc(C(=O)Nc2ccccc2N)cc1	24	12
COc1ccc(CNC(=O)C[C@H]2CC[C@H](NC(=O)CN(C)C)[C@H](CO)O2)cc1	-3	2
Cc1noc(C)c1NC(=O)Nc1ccc2c(c1)C(=O)N([C@@H](C)CO)C[C@@H](C)[C@H](CN(C)C(=O)Nc1ccc(F)cc1)O2	12	11
COc1ccccc1S(=O)(=O)N[C@H]1C=C[C@@H](CC(=O)N2CCOCC2)O[C@@H]1CO	0	-5
O=C(Cc1ccccn1)N1CC(=O)N2[C@H](CO)[C@H](c3ccc(C#CCC4CCCC4)cc3)[C@H]2C1	?	.
CCCNC(=O)N1CC2(CN(Cc3cccnc3)C2)c2c(n(C)c3cc(OC)ccc23)[C@H]1CO	-6	1
O=C(Nc1ccccc1)N1C[C@H]2[C@@H](c3ccccc31)[C@@H](CO)N2C(=O)c1ccccc1F	16	20
O=C(NC[C@H]1N[C@H](CO)[C@@H]1c1ccc(C2=CCCCC2)cc1)c1cccc(F)c1	-13	8
CCCC#Cc1cnc2c(c1)C(=O)N([C@@H](C)CO)C[C@@H](C)[C@@H](CN(C)C(=O)Cc1ccncc1)O2	-23	-19
Cc1noc(C)c1NC(=O)Nc1ccc2c(c1)C(=O)N([C@H](C)CO)C[C@H](C)[C@@H](CN(C)Cc1ccc(C(=O)Nc3ccccc3N)cc1)O2	0	-10
COc1ccc(NC(=O)Nc2ccc3c(c2)CC(=O)N([C@@H](C)CO)C[C@@H](C)[C@H](CN(C)S(=O)(=O)c2ccc(Cl)cc2)O3)cc1	7	3
CO[C@@H]1CN(C)C(=O)c2cc(NC(=O)C3CC3)ccc2OC[C@H](C)N(C(=O)c2ccccc2)C[C@@H]1C	3	-3
Cc1ccc(S(=O)(=O)N(C)C[C@H]2Oc3ccc(NC(=O)Nc4ccccc4)cc3C(=O)N([C@H](C)CO)C[C@H]2C)cc1	-24	-11
Cc1ccc(-c2ccc3c(c2)O[C@@H](CN(C)C(=O)CN(C)C)[C@@H](C)CN([C@@H](C)CO)S3(=O)=O)cc1	-23	-21
N#C[C@H]1[C@@H](c2ccc(C#CC3CCCC3)cc2)[C@@H](CO)N1S(=O)(=O)Cc1ccccc1	-6	-8

# A portion of the library; the hit share may differ from the screen's.
